# Screening results deposited in PubChem by National Center for Advancing Translational Sciences (NCATS).
# VACV mCherry inh: inhibitors of vaccinia virus infection (mCherry reporter signal). Vaccinia virus mCherry reporter infection, fluorescence; about a quarter of the inactives have no number. AID 720579. Potency, µM (titrated, usually from 36.5 µM), for the others: top-dose activity change, negative = inhibition, most hits filed as inhibitors. 310,000 tested, 0.63% active; active = well fitted inhibition curve with a large enough effect; inconclusive = small, poorly fitted or top-dose-only effect; inactive = no such curve, though single readings can be large or run the other way; tested in A549 cells; also: nearly all actives have a fitted effect of over 35% in size; inactives centre near -10
# VACV Venus inh: inhibitors of vaccinia virus (Venus reporter) | 330,000 tested, 0.46% active | Vaccinia virus Venus reporter expression, fluorescence | Potency, µM (titrated, usually from 36.5 µM), without a hit: at the top dose activity change, negative = inhibition, most hits filed as inhibitors | AID 720580; active means well fitted inhibition curve with a large enough effect; inconclusive means small, poorly fitted or top-dose-only effect; inactive means no such curve, though single readings can be large or run the other way; tested in A549 cells; also: nearly all actives have a fitted effect of over 30% in size; inactives centre near -10
# Active calls of the source: *; i = inactive; ? = inconclusive; · = not tested or not shown; & = joins results of further samples; [ ] = another dose, or the depositor's remark. % is scaled to controls: 0 for no effect and ±100 for the full control effect; potency is read from the fitted curve at half-maximal effect.
SMILES,VACV mCherry inh,VACV Venus inh
C=CC[C@@H](CC(=O)N[C@H](CO)Cc1ccccc1)C(=O)N[C@@H](COC(=O)[C@@H](CC=C)CC(=O)OC(C)(C)C)Cc1c[nH]c2ccccc12,i,-23%
CCOC(=O)c1c(NC(=O)c2cc(OCC)c(OCC)c(OCC)c2)sc2c1CCCCC2,-8%,-12%
COc1ccccc1NS(=O)(=O)c1cc(NC(=O)C(C)C)ccc1N1CCCCC1,-3%,-1%
O=C(CCl)Nc1cccc2ncccc12,3.5µM*,?
Cc1nnc(NC(=O)COc2ccccc2)s1,-11%,-6%
O=C(c1ccc2c(c1)N(Cc1ccc(F)cc1)CCS2)N1CCOCC1,i,-15%
COc1ccc(NC(=O)c2c(-c3ccccc3)c(-c3ccccc3)nn(C)c2=O)c(OC)c1,-4%,-10%
Cc1ccc(-c2csc(N3CCC(C(N)=O)(N4CCCCC4)CC3)n2)cc1,-11%,-11%
C=CCn1c2ccccc2c2nnc(SCC(=O)OC)nc21,i,-9%
Cc1ccc(N(C(=O)c2snc(C(N)=O)c2N)C(C(=O)NCC2CCCO2)c2c[nH]c3ccccc23)cc1 (configuration not stated),i,-10%
CCc1nc2ccc(C(=O)NCCN3CCCC3)cn2c1N(C)Cc1ccc(OC)cc1,i,-14%
Cc1ccc(SCC(=O)NC2CCCCCC2)cc1,-2%,-18%
Cn1c(SCCCC(=O)c2ccc(F)cc2)nnc1-c1ccncc1,·,2%
CCO[C@H]1OC(C(=O)N2CCN(Cc3ccc4c(c3)OCO4)CC2)=C[C@@H](C)[C@@H]1CCCO,-2%,-2%
COc1ccccc1CNC(=O)C1CC(c2cccc([N+](=O)[O-])c2)=NO1 (configuration not stated),-25%,-30%
O=C1NC[C@H](Cc2ccccc2)N(C[C@@H]2CCCN2C[C@H](Cc2ccc(O)cc2)N2C[C@H](Cc3ccc(O)cc3)N(CCc3ccccc3)C(=O)C2=O)C1=O,0%,-8%
CCOc1ccc(NC(=O)Cn2c(=O)n(CCc3ccccc3)c(=O)c3c4c(sc32)CN(C(C)=O)CC4)cc1,0%,-17%
CN(c1ncc(C(F)(F)F)cc1Cl)N1C(=O)C2ONC3(C(=O)CC(C)(C)CC3=O)C2C1=O (configuration not stated),5%,0%
CCN1C(C(=O)c2ccccc2)=C(OC(=O)COc2ccc(OC)cc2)c2ccccc2S1(=O)=O,-27%,-24%
C[C@H]1CN([C@@H](C)CO)C(=O)CCCn2nncc2CO[C@H]1CN(C)S(=O)(=O)c1cccc(F)c1,-2%,-9%
CCn1cc(C(=O)N2CCN(C3CCCCC3)CC2)c2cc(OC)c(OC)cc2c1=O,-23%,-21%
CC12c3ccccc3C(c3ccccc31)C1C(=O)N(c3ccncc3)C(=O)C12 (configuration not stated),-16%,-3%
COC(=O)c1[nH]c2cc(OC)ccc2c1NC(=O)CCN1CCSCC1,-17%,-10%
CCOc1ccc2c(c1)c(=O)c(S(=O)(=O)c1ccc(C)cc1)cn2Cc1ccccc1Cl,8%,9%
Cc1nsc(Nc2ccc([N+](=O)[O-])cc2)c1C#N,-13%,-2%
CCCN(C(=O)Cn1c(=O)oc2cc(Cl)ccc21)c1ccc(C(C)C)cc1,-10%,-9%
COc1cccc(CCc2nnc(CCC(=O)NC(C)c3c(C)nn(C)c3C)o2)c1 (configuration not stated),-1%,-7%
COc1ccc(CNC(=O)Cn2ncc3c([nH]c4ccccc43)c2=O)cc1,1%,-5%
CC(=O)Nc1ccc(S(=O)(=O)NCC(=O)OCC(=O)NC23CC4CC(CC(C4)C2)C3)cc1,-11%,-9%
O=S(=O)(NCc1ccc(F)cc1)c1ccc2[nH]c3c(c2c1)CCCC3,-26%,-19%
COc1ccccc1C(=O)Nc1ccnn1C1CCN(C2CCSCC2)CC1,-14%,-8%
COc1ccc([C@@]2(C(C)C)ON(c3ccccc3C(F)(F)F)C2=O)cc1,-21%,?
CN1CCc2cccc3c2[C@H]1Cc1ccc(O)c(O)c1-3,i,-22%&-13%&-6%
CC1(C)Oc2ccc3ccc(=O)oc3c2/C(=C/O)C1=O,i,-10%
O=C(O)c1ccc2c(=O)n(-c3ccc(F)c(Cl)c3)c(=S)[nH]c2c1,4%,-2%
OCCC1CN(Cc2cccn2-c2ncccn2)CCN1Cc1ccc(F)cc1 (configuration not stated),-12%,2%
COCCNc1nnnc2c1sc1nc(N3CCOCC3)c3c(c12)CC(C)(C)OC3,-3%,0%
CCc1nc(SC)ncc1C(=O)NCc1cccc(Br)c1,-11%,-8%
COC(=O)NCCOc1nc(N(C)C)nc(N(C)C)n1,-15%,-6%
CCCCCCn1cc(CN2CC(N3CCN(CCO)CC3)CS2(=O)=O)nn1 (configuration not stated),0%,4%
O=C(NCCCN1CCOCC1)c1ccc(Sc2cccc(Cl)c2)c([N+](=O)[O-])c1,?,-18%
Cc1cc(C#N)c(C)n1-c1cc(S(=O)(=O)N2CCOCC2)ccc1N1CCCC1,i,-8%
CCCc1ccc(-c2c(C)sc(N)c2C#N)cc1,-24%,-16%
Cc1c(C(=O)N2CCCC(c3ccccc3)C2)sc2ncnc(NCCc3ccccn3)c12 (configuration not stated),-14%,2%
Cc1c(C(c2ccccc2Cl)c2c(O)c3ccccc3oc2=O)c(=O)n(-c2ccccc2)n1C (configuration not stated),-9%,-2%
FC(F)(F)c1cccc(-n2nnnc2C2(N3CCOCC3)CCCCC2)c1,·,-20%
O=C(NCCc1ccccc1)c1cccc(NC(=O)C2CCCC2)c1,-2%,-11%
Cc1ccc(C(C)C)cc1OCC(=O)Nc1ccc(-n2cnnn2)cc1,-15%,-13%
CN(C)CCNC(=O)/C(=C/c1ccc(-c2ccc(Cl)cc2Cl)o1)NC(=O)c1ccccc1,?,11µM*
O=C(Nc1ccccc1F)Nc1cc(S(=O)(=O)N2CCOCC2)ccc1N1CCCC1,i,6%

# For convenience, some entries already given:
SMILES,VACV mCherry inh,VACV Venus inh
Cc1ccc(C(C)C)cc1OCC(=O)Nc1ccc(-n2cnnn2)cc1,-15%,-13%
CN(C)CCNC(=O)/C(=C/c1ccc(-c2ccc(Cl)cc2Cl)o1)NC(=O)c1ccccc1,?,11µM*
O=C(Nc1ccccc1F)Nc1cc(S(=O)(=O)N2CCOCC2)ccc1N1CCCC1,i,6%

# Returning to the listing with the five entries that preceded the break.
SMILES,VACV mCherry inh,VACV Venus inh
FC(F)(F)c1cccc(-n2nnnc2C2(N3CCOCC3)CCCCC2)c1,·,-20%
O=C(NCCc1ccccc1)c1cccc(NC(=O)C2CCCC2)c1,-2%,-11%
Cc1ccc(C(C)C)cc1OCC(=O)Nc1ccc(-n2cnnn2)cc1,-15%,-13%
CN(C)CCNC(=O)/C(=C/c1ccc(-c2ccc(Cl)cc2Cl)o1)NC(=O)c1ccccc1,?,11µM*
O=C(Nc1ccccc1F)Nc1cc(S(=O)(=O)N2CCOCC2)ccc1N1CCCC1,i,6%
CCOC(=O)c1nnn(CC(=O)NC(=O)Nc2ccc(F)cc2)c1C(=O)OCC,-12%,-10%
Nc1cccc(N=Cc2c(O)n(Cc3ccc(F)cc3)c(=O)[nH]c2=O)c1,-17%[1.46 µM],-10%
COC(=O)c1sc2cccc(F)c2c1S(=O)(=O)N1CCN(c2ccccc2OC)CC1,-10%,2%
O=C(CSc1n[nH]c(-c2ccccc2)n1)Nc1ncccn1,-20%,-1%
CC(C)(C)C(=O)Nc1ccc(-c2cn3cccnc3n2)cc1,10%,-4%
CCc1nccn1S(=O)(=O)c1cccc([N+](=O)[O-])c1,-1%,-10%
O=C(NC1CCCC1)c1cn(C2CCN(Cc3cccc4cccnc34)CC2)nn1,-2%,-2%
COc1ccc(C2COC(=O)C2=N)c(NC(=O)c2ccccc2)c1 (configuration not stated),-9%,1%
COc1ccc(Cl)cc1NC(=O)Cn1ncc2c3ccccc3n(C)c2c1=O,-13%,-8%
O=C(COc1ccc(Cl)cc1Cl)NN1C(=O)C2C3C=CC(C3)C2C1=O (configuration not stated),i,-22%

# Complete entries from above:
# CCOC(=O)c1nnn(CC(=O)NC(=O)Nc2ccc(F)cc2)c1C(=O)OCC as listed: VACV mCherry inh = -12%; VACV Venus inh = -10%
# O=C(NC1CCCC1)c1cn(C2CCN(Cc3cccc4cccnc34)CC2)nn1 as listed: VACV mCherry inh = -2%; VACV Venus inh = -2%

# More records
SMILES,VACV mCherry inh,VACV Venus inh
O=C(CC1SC(=Nc2cccc3ccccc23)N(Cc2ccccn2)C1=O)Nc1ccccc1Br (configuration not stated),-1%,-19%
Cc1ccc(CNC(=O)CN2C(=O)COc3ccccc32)cc1,-7%,-7%
Cc1nn(C)c(Oc2cccc(Cl)c2)c1C(=O)O,-27%,-25%
CCCCN1CC(C(=O)NC2CCCCC2)CC1=O (configuration not stated),·,7%
COc1c2c(c(CC=C(C)C)c3oc(=O)c(-c4ccc(O)cc4)c(O)c13)OC(C)(C)C=C2,-10%,0%
COc1ccc(/C=C(\C#N)C(=O)N=CN(C)C)cc1,-3%,-2%
COc1ccc(S(=O)(=O)N(C)CC(=O)NC2CCCCC2)cc1OC,-13%,-2%
O=C(COc1ccc(Cl)cc1Cl)NCCC1=CCCCC1,i,-10%
COc1cccc(OCCNc2cc(N3CCCCC3)ccc2[N+](=O)[O-])c1,-18%,-14%
COc1ccccc1CCNC(=O)C(=O)NCC(c1ccco1)S(=O)(=O)c1ccccc1 (configuration not stated),-7%,-13%
COCCn1c(SCC(=O)Nc2ccccc2)nnc1-c1ccoc1C,-16%,4%
O=C(O)c1ccc(Cl)cc1NC(=O)C1CCCO1 (configuration not stated),i,-12%
Cc1onc(-c2c(F)cccc2Cl)c1C(=O)ONC(=O)c1ccccc1,i,9%
C=CCCC(=O)N1C[C@H]2CCN(C)[C@H]2C[C@H]1c1ccc(Br)cc1,i,1%
Cc1nc2ccn(Cc3ccco3)c(=O)c2cc1C(=O)N1CCN(c2ccc(F)cc2)CC1,-11%,-7%
CS(=O)(=O)N1N=C(c2ccco2)CC1c1ccccc1 (configuration not stated),-5%,-22%
COc1ccc(-c2nc(-c3ccccc3)no2)c(OC)c1,-12%,-10%
COc1cccc(Cn2nnc3c(=O)[nH]c(C4CCCN(C(=O)c5ccc(C)cc5)C4)nc32)c1 (configuration not stated),-6%,-7%
Cc1nc(/C(N)=N/OC(=O)c2c(-c3ccccc3Cl)noc2C)cs1,i,-19%
COc1ccc(-c2cc(C(F)(F)F)nc(SCCC(=O)NCc3ccco3)n2)cc1,·,-23%
CCN(CC(=O)Nc1ccc(OC)cc1)C(=O)c1oc2c(Cl)cccc2c1C,-10%,0%
CCOC(=O)c1ccc(NC(=O)C2CC(=O)N(c3ccc(C(C)C)cc3)C2)cc1 (configuration not stated),-13%,-12%
COc1ccc(OC)c2[nH]c(=O)c(CCNC(=O)COc3ccccc3)cc12,i,-8%
NCc1csc(Nc2ccc(C(=O)c3ccccc3)cc2)n1,?,-27%
COc1ccccc1NC(=O)C/C(C)=N/NC(=O)COc1c(Br)cc(Br)cc1OC,-2%,-22%
Cn1c(=O)c2c(nc(N3CCCCCC3)n2Cc2cccc3ccccc23)n(C)c1=O,?,-29%
CN(C(=O)c1ccc2c(c1)N(Cc1ccccc1F)C(=O)c1ccccc1S2(=O)=O)C1CCCCC1,-6%,-3%
COc1ccccc1N1CCN(C(=O)c2ccc(S(=O)(=O)N3CCCC3)cc2)CC1,·,2%
Cc1cc(C)cc(-n2nnnc2SCC(=O)N2CCOCC2)c1,?,-23%
COc1cc(/C=N/NS(=O)(=O)c2ccc(C)cc2)ccc1OCc1cccc(C(=O)O)c1,i,-9%

# Among those listed so far, five have a nitro group on carbon.
SMILES,VACV mCherry inh,VACV Venus inh
COc1ccccc1CNC(=O)C1CC(c2cccc([N+](=O)[O-])c2)=NO1 (configuration not stated),-25%,-30%
Cc1nsc(Nc2ccc([N+](=O)[O-])cc2)c1C#N,-13%,-2%
O=C(NCCCN1CCOCC1)c1ccc(Sc2cccc(Cl)c2)c([N+](=O)[O-])c1,?,-18%
CCc1nccn1S(=O)(=O)c1cccc([N+](=O)[O-])c1,-1%,-10%
COc1cccc(OCCNc2cc(N3CCCCC3)ccc2[N+](=O)[O-])c1,-18%,-14%

# Other records
SMILES,VACV mCherry inh,VACV Venus inh
COc1ccc(C(=O)Nc2ccnn2C2CCN(C(=O)c3cc(C)on3)CC2)cc1,i,-9%
CC#CCN(Cc1ccco1)C(=O)C1CCC(=O)N(CCc2cccc(F)c2)C1 (configuration not stated),i,-11%
COc1ccc(/C=N\NC(=O)COc2ccc(Cl)cc2Cl)c(C(=O)O)c1OC,-15%,0%
O=C1CN=C(c2ccc(Br)cc2)c2oc3ccccc3c2N1,-21%,-14%
COc1ccc(S(=O)(=O)N2CCN(S(=O)(=O)c3ccc4c(c3)OCCO4)CC2)cc1,-1%,-6%
Cn1cccc1P(=O)(c1cccn1C)c1cccn1C,-5%,-13%
[O-]/[N+](=C\c1ccncc1)c1ccccc1,-6%,0%
COc1ccc(Cn2c(SC)nc3ccccc32)cc1[N+](=O)[O-],-15%,-12%
O=C(NNC(=O)c1cc2cc(Br)ccc2oc1=O)c1ccc(O)cc1O,?,?
CC(Oc1ccccc1[N+](=O)[O-])C(=O)N/N=C/c1ccoc1 (configuration not stated),-9%,-11%
Cc1cc(C)n(-c2nc(NC(C)(C)C)nc(NC(C)(C)C)n2)n1,·,4%
COCC(=O)N1Cc2ccccc2-n2nncc2C1,-7%,4%
